# RanGTP-Imp inh: inhibitors of RanGTP-importin-beta interaction, primary screen, biochemical, FRET, CFP-Ran, YFP-importin-beta, homogeneous | 300,000 tested, 1.1% active | inhibition, % (no concentration beside the values) | AID 2216 | cell-free CFP-Ran/YFP-importin-beta FRET ratio;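 active means most replicates above 15%; inconclusive means exactly half above 15%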;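 further: 0% = DMSO wells and 100% = Ran loaded with GDP instead of GTP; wells of about 40 µL received 100 nL stock; the first replicate is given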
# Vif TR-FRET: HIV-1 Vif–A3G interaction blockers – biochemical, TR-FRET, GST-Vif 1-94, biotin-A3G peptide, dose response retest, primary screen (AID 1117319); one-dose inhibition, %; IC50 in µM for titrated hits; TR-FRET GST-Vif / biotin-A3G peptide binding; higher % means a stronger effect; test concentration not given here; strong numbers were not always called active; 260,000 tested, 0.57% active;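 active means above the screen mean plus three standard deviations and confirmed in dose response; inconclusive means results disagree or hit not tested in dose response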;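 further: Vif residues 1-94 fused to GST binding biotinylated APOBEC3G peptide 110-148; 0% = full assay without inhibitor and 100% = GST in place of GST-Vif; retest series ran down from 100 µM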
# Beta cell apopt: beta cell apoptosis inhibition | 300,000 tested, 0.8% active | protection from apoptosis, % (concentration not given with the values) | INS-1E cytokine-induced death, ATP luminescence, 48 h; percent of positive-control rescue, neutral wells zero;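 active means all replicates at 75% or more, or half of them and the mean; inconclusive means half reach 75% but not the mean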;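 further: 0% = cytokine-treated negative control wells and 100% = positive control rescue; higher means more ATP so stronger rescue from cytokine killing; wells of about 40 µL received 100 nL stock; the first replicate is given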
# T cruzi repl: T. cruzi replication inhibition | T. cruzi beta-gal in NIH3T3, luminescence, 90 h | inhibition, % (test concentration not listed) | 300,000 tested, 1.4% active | AID 1885;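 active means mean inhibition across valid replicates above about 55%, limit read from the data; inconclusive means mean below that limit but half or more replicates reach it; inactive means mean below it, under half of replicates reach it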;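 further: signal also drops with host cell toxicity which is not excluded here; 0% = plate median of DMSO wells and 100% = zero luminescence signal; higher percent means less beta-gal luminescence so fewer parasites; stock transfer was 50 nL into about 50 µL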
# A1 inh: inhibitors of the anti-apoptotic protein A1, read as caspase activation. AID 2462. 330,000 tested, 0.066% active. MEF A1-2A-BIM cells, Caspase-Glo 3/7 luminescence, 3 h; percent of clofoctol response, vehicle zero. caspase activation, % (concentration not given with the values);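 active means over half of replicate activation scores above 10%, or exactly half above 10 with the replicate mean above 10; inconclusive means replicate mean below 10 yet half the replicates above 10; inactive means over half of replicates below 10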;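 further: wells of about 30 µL received 50 nL stock; many hits fall short of the cut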
# Calb FLC: affects C. albicans growth with fluconazole. C. albicans CaCi-2 (fluconazole-resistant clinical isolate) + fluconazole, Alamar Blue growth, 48 h. growth inhibition, % (test concentration not listed). 300,000 tested, 0.57% active;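 active means most replicates above 75%; inconclusive means exactly half above 75%; inactive means most below 75%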;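 further: all wells also contain fluconazole at 8 µg/ml as a sub-toxic cotreatment; 0% = median of DMSO wells and 100% = median of geldanamycin control wells; wells of about 8 µL received 7.5 nL stock; the first replicate is given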
# AF4-AF9 inh: MLL-AF4/AF9 protein interaction inhibition | P42568 | AlphaScreen, biotin-AF4 peptide binding to FLAG-AF9 | inhibition, % at 10 µM | 350,000 tested, 0.47% active;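 active means every replicate reaching a set inhibition limit, whatever the replicate mean, cut at about 25% in these data; inconclusive means mean inhibition reaches that limit but some replicates miss it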;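 further: 0% = plate neutral control median and 100% = total signal loss; the record names both 10 and 1 µM as test concentration; the first replicate is given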
# Target sequence (P42568 whole entry, looked up): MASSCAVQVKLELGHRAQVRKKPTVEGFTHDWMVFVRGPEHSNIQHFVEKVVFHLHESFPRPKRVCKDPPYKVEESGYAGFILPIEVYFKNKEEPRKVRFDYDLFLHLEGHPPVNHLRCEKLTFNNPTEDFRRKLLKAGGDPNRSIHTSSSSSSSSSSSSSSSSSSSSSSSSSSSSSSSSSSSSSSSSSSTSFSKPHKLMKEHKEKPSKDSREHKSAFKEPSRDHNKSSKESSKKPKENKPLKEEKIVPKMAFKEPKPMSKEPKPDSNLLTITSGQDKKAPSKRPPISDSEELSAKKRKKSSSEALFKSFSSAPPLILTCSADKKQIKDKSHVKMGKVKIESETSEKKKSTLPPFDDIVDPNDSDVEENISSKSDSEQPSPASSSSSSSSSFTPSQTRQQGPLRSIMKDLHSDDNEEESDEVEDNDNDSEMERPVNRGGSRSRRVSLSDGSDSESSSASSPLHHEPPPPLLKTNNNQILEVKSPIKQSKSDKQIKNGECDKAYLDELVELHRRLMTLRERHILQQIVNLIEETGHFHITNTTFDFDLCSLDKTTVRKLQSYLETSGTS
# LANA-H2B inh: blocks KSHV LANA binding to histone H2A/H2B. cell-free LANA-H2A/H2B peptide, fluorescence polarization. inhibition, % (test concentration not listed). 320,000 tested, 0.6% active; in the data active means inhibition mostly above about 10%, no sharp cut-off; inactive means mostly below about 6.7%;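 further: stock transfer was 7.5 nL into about 10 µL; 0% = median of vehicle wells and 100% = median of positive control wells; one replicate is shown; the record names a cut of 25% in any replicate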
# An asterisk follows results filed as active; ? = inconclusive; . = not tested or not shown; & = joins results of further samples.
SMILES,RanGTP-Imp inh,Vif TR-FRET,Beta cell apopt,T cruzi repl,A1 inh,Calb FLC,AF4-AF9 inh,LANA-H2B inh
CC(C)(C)C(=O)N1CCc2cc(-c3csc(N)n3)ccc21,?,1%,0,8,0.6,?,.,-4.5
O=C(c1c[nH]c2ccccc12)C(O)C(c1ccccc1)N1CCOCC1 (stereo not given),3.5,0%,1,-1,-0.3,-3,.,-5.7
CCOC(=O)c1[nH]c(C)c(C(=O)NC(C)(C)C)c1C,-5.5,-4%,-5,-7,0.4,-1,.,-2.0
CCOc1ccc2[nH]c(=O)c(CN(CCO)C(c3nnnn3C3CCCCC3)C(C)C)cc2c1 (stereo not given),-20,?,.,16,.,12,.,.
CC(C)NC(=O)c1cc(-c2cccs2)on1,-4.9,7%,7,-8,-0.3,-4,.,4.2
N#Cc1cccc(CSc2ncnc(N)n2)c1,5.7,1%,-10,0,0.2,8,1.6,-2.2
Cc1c(C)c2ccc(OC(C)C(=O)NCCCn3ccnc3)c(C)c2oc1=O (stereo not given),-0.9,.,6,6,1.2,1,1.2,-5.9
O=C(Nc1ccc(Cl)cn1)c1cccc(S(=O)(=O)N2CCCC2)c1,?,.,-4,2,1.0,13,-4.9,-1.0
CN(C)c1cc2c(cc1NC(=O)c1ccccc1Cl)n(C)c(=O)n2C,-2.1,.,6,-4,-0.1,35,2.5,-5.1
O=C(Nc1ccc(Cl)cc1)Nc1cc([N+](=O)[O-])ccc1F,-2.8,11%,29,35,1.7,1,.,-0.7
CCOC(=O)C(C)Sc1nc(=O)n2cc(C)ccc2n1 (stereo not given),1.4,.,-2,-8,0.6,-8,-1.2,2.7
O=C(NCC1CCCO1)c1ccc(COc2ccc(Br)cc2)cc1 (stereo not given),1.4,.,0,10,-0.5,5,.,4.2
O=C(CC1CCCCC1)NCc1ccccn1,0.4,-1%,-7,-6,0.9,13,.,7.8
COc1ccc(CN(C)C(=O)Cc2ccc(OC)c(S(=O)(=O)N3CCOCC3)c2)cc1,4.0,1%,1,-1,0.8,-12,-9.3,-1.1
c1cncc(C2OCC3(CO2)COC(c2cccnc2)OC3)c1 (stereo not given),.,.,-2,-7,0.0,6,0.0,-8.5
Cc1ccc2nc(-c3ccc(NC(=O)c4cccnc4)cc3)oc2c1,-0.3,-2%,106*,26,0.4,16,-2.0,0.6
O=C1C=C(NCCOC23CC4CC(CC(C4)C2)C3)C2(CCCCC2)O1,0.6,-7%,1,7,0.5,-30,-2.0,1.2
Cc1occc1C(=O)NCc1ccccc1F,5.2,10%,-6,-16,0.0,-5,0.2,-4.2
CCS(=O)(=O)Nc1cc(C(=O)OC)ccc1C(=O)OC,4.6,6%,2,-3,-0.6,0,.,-3.1
Cc1cc(C)c2cc(C#N)c(SCC(=O)NCC3CCCO3)nc2c1 (stereo not given),-2.2,-6%,3,6,0.1,2,.,1.7
NC(=O)CSc1nnc(Cc2csc(Nc3ccc(F)cc3)n2)n1Cc1ccccc1,-5.0,.,-4,-4,-0.2,5,.,4.9
COCc1ccc(C(=O)N2CCCC(N3CCN(c4ccccc4C)CC3)C2)s1 (stereo not given),1.2,.,-1,-15,1.8,-32,-0.6,-0.3
CCn1c(SCC(=O)Nc2ccc(C(C)=O)cc2)nc2nc3c(cc2c1=O)CCCC3,2.0,-21%&-21%,14,21,1.0,-2,.,-5.2
Cc1ccccc1NC(=O)NC1(C(=O)NCc2ccco2)CCCCC1,5.6,.,-3,-3,-0.1,2,-5.6,2.7
COCc1cc(C)nc(OCC(=O)N/N=C/c2ccc(OC)c(O)c2)c1C#N,.,.,1,0,0.5,.,-0.5,-1.3
Cc1cc(C)c2c(=O)c3c(oc2c1)C(=O)N(CCO)C3c1cccc(O)c1 (stereo not given),0.3,0%,4,0,0.3,-9,.,3.0
CCCS(=O)(=O)N1CCN=C1SCc1ccc(C)cc1,-0.1,-2%,-4,34,0.3,-17,-0.9,-2.8
Nc1ccccc1Nc1ccc([N+](=O)[O-])cc1[N+](=O)[O-],8.4,30%,-2,52,-0.3,3,9.9,-1.8
CC1(C(=O)OCC(=O)Nc2ccccc2Cl)CC1(Cl)Cl (stereo not given),?,-10%,-4,-2,-0.9,5,-2.7,-2.3
O=C(Nc1ccccc1C(=O)O)c1cc(S(=O)(=O)N2CCCCCC2)ccc1Cl,0.3,.,-4,-9,0.0,2,-1.6,0.8
COCCOC(=O)c1[nH]c2c(c1C)C(=O)CC(c1cc(OC)ccc1OC)C2 (stereo not given),-3.9,-1%,7,-40,0.9,2,5.9,-5.9
CN1CCN(C(=O)c2ccc(S(=O)(=O)c3ccc(Br)cc3)cc2)CC1,1.5,2%,4,7,-0.4,0,.,1.8
N#Cc1ccccc1CSc1nc2ccc(NC(=O)c3ccccc3C(=O)O)cc2s1,4.3,5%,0,9,0.0,-49,-0.7,-1.5
Cc1cc(C(=O)Nc2c(C)n(C)n(-c3ccccc3)c2=O)on1,2.2,-4%,.,-7,0.3,-4,0.6,-3.5
CSc1ccc(NC(=O)Nc2cccn(Cc3ccccc3)c2=O)cc1,-2.1,-13%,-5,23,-0.2,-49,0.9,-3.4
CCc1cc(C(=O)OC)c(NC(=O)CC2Sc3ccc(C(F)(F)F)cc3NC2=O)s1 (stereo not given),-1.6,.,1,-10,0.5,-24,3.8,.
COCC(=O)N(Cc1cc2ccc(C)cc2[nH]c1=O)c1ccc(C)cc1C,1.9,-10%,-6,-1,-0.3,-1,0.8,0.1
CCOc1ccccc1NC1=C(Cl)C(=O)N(c2ccc(OC)cc2)C1=O,-3.7,8%,-4,-5,-1.1,-1,.,-8.0
COc1cc(C)c(NC(=O)COc2ccc3c(c2)OCO3)cc1C,-1.6,2%,4,1,-2.0,-3,0.9,-1.2
O=C(O)c1sc2cc(C(F)(F)F)cnc2c1-c1cccs1,2.5,?,.,-8,0.4,6,-2.5,-0.2
CN(CC(=O)Nc1ccc(F)cc1)C(=O)COC(=O)c1cc([N+](=O)[O-])ccc1N1CCOCC1,4.7,-8%,-1,5,1.9,7,.,-4.3
COc1cccc(CN(C)C(=O)c2ccccc2Sc2ccccc2C#N)c1,5.0,.,-13,?,1.0,-6,-2.0,-1.4
CS(=O)(=O)N1CCN(c2ccccc2F)CC1,-3.2,6%,-1,0,-0.5,-7,.,-3.6
Cc1ccc(CNCc2ccc3c(c2)OCO3)cc1,-7.2,0%,-9,5,-0.4,-27,-5.9,-2.5
COc1ccc(CN2CCN(C(=O)Cn3nc(C(=O)O)c4ccccc4c3=O)CC2)cc1F,1.7,.,0,0,0.7,6,-0.9,-2.8
COCc1cc(C)nc(SCc2ccc([N+](=O)[O-])cc2)c1C#N,2.7,-5%,.,-1,0.0,9,2.6,-2.7
Cc1nn(-c2ccc(F)cc2)c(-n2cccc2)c1C(=O)N1CCN(C(=O)c2ccco2)CC1,2.8,.,-6,2,0.0,-7,-22,-2.7
Cc1cc(C(=O)N/N=C2\CCCc3ccccc32)c(C)o1,5.7,6%,-5,-15,0.3,18,0.2,-0.7
Cc1ccc(C(=O)COC(=O)c2ccc(-c3cnc4ccccc4n3)cc2)cc1C,-0.7,.,6,1,-0.6,-3,-33,-3.6
N#C/C(=C\c1ccccn1)c1nc2ccccc2s1,-15,.,1,-26,-0.7,6,4.8,2.3
N#CC(C#N)=Cc1ccc(OC(=O)c2ccccn2)cc1,-0.8,5%,-2,-14,0.4,-1,-15,10
Cn1c(CC(=O)Nc2ccc(Cl)c(Cl)c2)nnc1SCC(=O)N1CCN(c2ccccc2)CC1,5.5,-1%,2,-11,-0.5,5,-1.1,0.5
Cc1cc(Cl)c2oc(C(=O)N(C)Cc3nccn3C)c(C)c2c1,-1.8,.,.,0,.,-7,5.0,.
COc1cc(/C=N\NC(=O)c2sc(N)nc2C)cc(OC)c1OC,1.1,0%,8,-2,0.8,-2,.,0.9
COc1ccc(NS(=O)(=O)c2ccc(Oc3ncccn3)cc2)cc1,0.9,5%,9,0,0.1,-6,.,0.9
O=C1Nc2ccccc2C1=Nc1cccc([N+](=O)[O-])c1,2.0,12%,.,-5,0.0,-29,-0.4,8.0
Cc1ccc(-c2nc(CS(=O)(=O)CC(=O)N3CC(C)CC(C)C3)c(C)o2)cc1 (stereo not given),4.3,-1%,-4,3,0.3,10,4.7,0.5
CCc1cc(Cn2nc(C(=O)O)cc2-c2ccccc2)on1,0.4,.,0,-8,-0.9,4,-1.6,-5.3
CC(=O)N1CCCc2cc(S(=O)(=O)N3CCc4ccccc4C3)ccc21,-0.1,-4%,-7,17,1.0,-3,.,-0.2
Cc1[nH]c(=O)[nH]c(=O)c1/C=N\NC(=O)CCc1ccc(OC(C)C)cc1,-1.5,7%,-1,13,-0.2,0,.,5.7

# Continuation:
SMILES,RanGTP-Imp inh,Vif TR-FRET,Beta cell apopt,T cruzi repl,A1 inh,Calb FLC,AF4-AF9 inh,LANA-H2B inh
CC(Sc1nc2ncc(Cl)cc2[nH]1)C(=O)c1c(N)n(C)c(=O)n(C)c1=O (stereo not given),4.2,-1%,4,-13,0.7,-2,-4.8,-5.1
Cc1ccc(NC(=O)CN(C)C(=O)COC(=O)c2nccnc2N)cc1,.,-9%,3,.,2.2,.,-0.7,-8.1
CC1CCN(S(=O)(=O)c2ccc(C(=O)Nc3nnc(-c4ccccn4)o3)cc2)CC1,3.5,3%,5,-5,0.0,?,3.5,-0.9
COc1cc(NC(=O)CSc2nccc(=O)[nH]2)c(C)cc1[N+](=O)[O-],-1.9,.,-4,3,1.8,-3,-2.5,-0.6
COC(CNC(=O)c1ccc2c(=O)n(Cc3ccc(Cl)cc3)c(=S)[nH]c2c1)OC,1.6,-7%,7,-18,0.6,1,0.6,1.4
COc1ccc2c(c1)C1=C(CC2)C(c2ccc(C)cc2)NC(=S)N1 (stereo not given),0.7,15%,7,24,-0.1,43,4.8,-7.3
COc1cc(C2C(C#N)=C(N)N(c3cccnc3)C3=C2C(=O)CCC3)ccc1O (stereo not given),14,14µM*,-3,-10,-0.2,22,7.0,-3.9
COc1ccc(CN(C(=S)Nc2ccccc2)C2CC(=O)N(c3ccc(F)cc3)C2=O)cc1 (stereo not given),3.4,7%,-3,3,0.4,-9,.,-2.1
O=C(O)/C=C/C(=O)Nc1ccc2nccnc2c1,.,1%,-2,2,0.0,5,2.4,2.1
Cc1nn(CCCC(=O)NC(C)c2ccccc2)c(=O)c2nn(-c3ccccc3)c(C)c12 (stereo not given),?,.,-2,8,-0.3,-3,-3.4,-0.1
O=C(c1ccc([N+](=O)[O-])cc1)N(Cc1ccc(Cl)cc1)N1C(=O)CCCC1=O,1.7,3%,-2,-14,1.0,3,.,2.8
COc1ccc2c(c1)C(NC(C)=O)C(=O)N2C (stereo not given),3.5,9%,-1,-3,-1.3,6,.,-5.2
O=C(Nc1ccccc1)Nc1nc(-c2ccc(F)c(F)c2)cs1,0.6,-2%,6,3,0.3,-25,.,8.1

# High-throughput results (PubChem BioAssay)
